# Screens: PubChem BioAssay, Center for Chemical Genomics, University of Michigan
# CDC25B-CDK2 inh = human CDC25B-CDK2/CyclinA binding inhibition. 0.72% of 94,000 active. P30305+P24941. HTRF CDC25B-CDK2/CyclinA binding, anti-His/anti-Flag; active compounds read high. z-score (test concentration not listed);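 note: score is relative to mean and SD of negative controls; strong numbers were not always called active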
# HIV TAR-Tat = HIV-1 TAR-Tat binding disruption. AID 1259389. 0.6% of 100,000 active. HIV-1 TAR RNA, Tat peptide displacement FRET; active compounds read high. z-score (test concentration not listed);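 note: score is relative to mean and SD of negative controls; some compounds called inactive have numbers as strong as hits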
# Active calls of the source: *; · = not tested or not shown.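 Rule for the calls: active = z-score from 3 up in half or more of its runs; inactive = the rest.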
compound	CDC25B-CDK2 inh	HIV TAR-Tat
CCOC(=O)CSc1nc2ccccc2n2c(C)nnc12	-1.15	-0.28
Cc1cccn2c(=O)c3cc(C#N)c(=O)n(-c4ccc(Cl)cc4)c3nc12	-2.65	1.1
CC(C)Cc1nn2c(=O)cc(COC(=O)c3ccc(C(C)(C)C)cc3)nc2s1	·	0.73
CCOc1ccc2nc(N3CCC(C(=O)N4CCN(C(=O)c5ccco5)CC4)CC3)sc2c1	-2.68	·
O=C(CSc1nc2ccccc2[nH]1)N1CCc2ccccc21	-0.4	1.45
COc1ccc(C2=C(C)C(=NCC(C)c3ccccc3)NS2(=O)=O)cc1 (configuration not stated)	-4.71	-1.45
COc1ccc(C(=O)CSc2ncnc3sc4c(c23)CCCC4)cc1	-5.65	0.93
COc1ccc(Nc2nc(N3CCN(C4CCCCC4)CC3)nc3c2cnn3C)cc1	·	1.53
O=C(NCCC1=CCCCC1)C1CCCN(c2nc3cccnc3s2)C1 (configuration not stated)	·	1.07
CC1=C(C(=O)OC2CCCCC2)C(c2cccs2)n2c(nc3ccccc32)N1 (configuration not stated)	-0.06	·
O=C1CCSc2ccc(S(=O)(=O)N3CCSc4ccccc43)cc2N1	·	-0.04
O=C(CC1SCCNC1=O)Nc1ccc(Cl)cc1 (configuration not stated)	-1.84	-0.25
Cc1cc2c(s1)CCc1cc(C(=O)NCc3cccs3)sc1-2	·	1.57
O=C1c2cccnc2C(=O)N1Cc1ccc(F)cc1S(=O)(=O)Nc1cc(F)ccc1F	·	0.28
Cc1ccc(-n2ncc3c2ncn2c(COc4ccccc4C)nnc32)cc1	0.13	1.09
CC1CN(S(=O)(=O)c2ccc3c(c2)NC(=O)CCS3)c2ccccc2O1 (configuration not stated)	·	0.09
O=C(c1cccn1-c1nnc(N2CCCCC2)s1)N1CCN(c2ccc(F)cc2)CC1	·	1.08
O=C(NCCC1=CCCCC1)c1ccc(CNc2c(NC3CCCC3)c(=O)c2=O)cc1	-0.28	0.03
CCOc1ccccc1NS(=O)(=O)c1ccc2c(c1)N(C)CCO2	·	1.04
CCc1cc2c3c([nH]c2cc1S(=O)(=O)Nc1ccc(C)cc1C)CCCC3=O	·	0.66
CC12CN3CC(C)(CN(C1)C31CN(Cc3ccccc3)c3ccccc31)C2=O (configuration not stated)	-1.4	·
Cc1ccc(S(=O)(=O)c2cn(C)c3cc(N4CCC(C)CC4)c(F)cc3c2=O)c(C)c1	·	-0.49
O=C1CC(c2ccc3c(c2)OCO3)c2cc3c(cc2N1)OCCO3 (configuration not stated)	-0.1	·
Cc1ccc(-n2nnnc2-c2cn[nH]c2-c2ccccc2F)cc1	-1.28	·
Cn1nc(CC#N)c(C#N)c1N	-1.65	·
O=C(Nc1nccs1)C1CCN(S(=O)(=O)c2cc(C(=O)N3CCCCC3)cs2)CC1	·	1.95
COCn1nnc2ccccc21	-0.87	·
Cn1c2ccccc2c2cnn(CC(=O)N3CCN(c4ccc(Cl)cc4)CC3)c(=O)c21	-2.24	-0.75
C=CCNC(=O)c1ccc2c(c1)C1C3CCC(C3)C1C(c1ccccc1)N2 (configuration not stated)	0.87	·
CCOc1cc(C2C(C(=O)OC)=C(C)NC3=C2C(=O)c2ccccc23)cc(Br)c1OCC (configuration not stated)	0.28	-0.71
Cc1ccc(N2CN(Cc3ccco3)CNC2=S)cc1	-0.24	·
COCCNc1oc2c(c1-c1ccc(Cl)cc1)c(=O)oc1ccccc12	·	0.96
Cc1ccc(-c2c(N3CCC(Cc4ccccc4)CC3)c(=O)c2=O)cc1C	·	1.5
Cc1cc(C)c2c(n1)SCC(=O)N2CC(=O)N1CCC(N2CCCCC2)CC1	1.43	0.4
CCOC(=O)c1ccc(N2C(=O)c3n[nH]c(C)c3C2c2ccc(O)cc2)cc1 (configuration not stated)	·	0.65
CSc1sc(C(=O)c2cccc([N+](=O)[O-])c2)c2c1C(=O)CC(C)(C)C2	-1.98	·
CCOC(CC(O)C(Cl)(Cl)Cl)(OCC)OCC (configuration not stated)	-2.24	·
COc1ccc2c(c1)CC(C(=O)NC1CCCCC1)CO2 (configuration not stated)	·	0.94
O=c1c(-c2ccccc2)c(C(F)(F)F)oc2c(CN3CCCC3)c(O)ccc12	15.3*	0.65
Cc1ccc(NC(=O)Nc2ccc3snnc3c2)cc1	-0.55	·
Cc1[nH]c(C)c(S(=O)(=O)Nc2ccc3c(c2)OCO3)c1C(=O)N1CCCC1	·	-0.27
CN(Cc1cc(=O)n2nc(C3CC3)sc2n1)c1ccc(Cl)cc1	·	0.33
Cc1ccc(CSc2nnc(-n3c(=O)c(C#N)cc4c(=O)n5cc(C)ccc5nc43)s2)cc1	-15.3	1.27
CCNc1nc(C)nc2onc(C(=O)OCC)c12	·	0.74
Cn1cccc1Cc1nnc(SCC(=O)Nc2ccc(Cl)cc2)n1-c1ccc(F)cc1	0.29	-1.2
COCCc1nn2c(=O)cc(COC(=O)c3cccc(OC)c3)nc2s1	·	0.31
O=C(C1=C(O)C(=O)N(CCCn2ccnc2)C1c1ccncc1)c1cccs1 (configuration not stated)	-0.73	·
CCn1c(=O)sc2cc(NS(=O)(=O)c3cc(Br)cc4c3N(C(C)=O)CC4)ccc21	·	-0.51

# Seven neighbouring records from above:
compound	CDC25B-CDK2 inh	HIV TAR-Tat
CN(Cc1cc(=O)n2nc(C3CC3)sc2n1)c1ccc(Cl)cc1	·	0.33
Cc1ccc(CSc2nnc(-n3c(=O)c(C#N)cc4c(=O)n5cc(C)ccc5nc43)s2)cc1	-15.3	1.27
CCNc1nc(C)nc2onc(C(=O)OCC)c12	·	0.74
Cn1cccc1Cc1nnc(SCC(=O)Nc2ccc(Cl)cc2)n1-c1ccc(F)cc1	0.29	-1.2
COCCc1nn2c(=O)cc(COC(=O)c3cccc(OC)c3)nc2s1	·	0.31
O=C(C1=C(O)C(=O)N(CCCn2ccnc2)C1c1ccncc1)c1cccs1 (configuration not stated)	-0.73	·
CCn1c(=O)sc2cc(NS(=O)(=O)c3cc(Br)cc4c3N(C(C)=O)CC4)ccc21	·	-0.51

# Back to the main list with the 2 entries that preceded the break.
compound	CDC25B-CDK2 inh	HIV TAR-Tat
O=C(C1=C(O)C(=O)N(CCCn2ccnc2)C1c1ccncc1)c1cccs1 (configuration not stated)	-0.73	·
CCn1c(=O)sc2cc(NS(=O)(=O)c3cc(Br)cc4c3N(C(C)=O)CC4)ccc21	·	-0.51
Cc1cn2c(=O)cc(CSc3nnc(NC(=O)c4ccco4)s3)nc2s1	·	0.86
O=C(NCc1cc(F)cc2c1OCOC2)c1cc(-c2ccc(Cl)cc2)oc1C(F)(F)F	-1.74	·
Cc1nc2sc3c(c2c2ncnn12)CCCC3	-1.02	·
CCOC(=O)c1cc(=O)c2cc(F)ccc2[nH]1	-1.03	-0.21
Cc1cc(NS(=O)(=O)c2ccc(NC(=O)c3ccc4nccnc4c3)cc2)no1	-0.52	·
O=C(CSc1nc2nccnc2c(=O)n1CCc1c[nH]c2ccccc12)NCC1CCCO1 (configuration not stated)	-2.73	0.23
COC(=O)[C@@H]1OC(=O)C2OC23[C@@]1(C)CCC1[C@]2(C)C(C[C@@H](O)[C@]13C)C(C)(C)[C@H](OC(C)=O)C[C@@H]2OC(C)=O (some centres not stated)	·	2.15
Cc1nc(SCC(=O)c2ccc(Cl)cc2)cc(-c2ccccc2)n1	-3.99	0.62
Clc1cccc(-c2noc3ncnc(N4CCN(c5ccccn5)CC4)c23)c1	·	-0.27
COc1ccc(NC(=O)c2cc3ccccc3c(=O)s2)c(OC)c1	-0.27	-0.35
O=c1ccc(-c2nc3ccccc3[nH]2)n[nH]1	0.67	-2.31
COc1ccc(Nc2nc(N3CCCCC3)nc3c2cnn3C)cc1Cl	·	1.44
O=C(CC1(O)C(=O)N(Cc2ccccc2)c2ccccc21)c1ccc2c3c(cccc13)CC2 (configuration not stated)	-0.72	·
O=C(Cn1cnc(S(=O)(=O)N2CCc3ccccc32)c1)Nc1ccccc1Cl	·	2
Cc1cc(NC(=O)C2Sc3nnc(C)n3NC2c2ccc(Cl)cc2)ccc1Br (configuration not stated)	-0.15	0.77
CCNc1nc(C#N)nc(N2CCOCC2)n1	-0.08	·
Cc1c(C(=O)Nc2ccc(Br)cc2F)oc2c1-c1[nH]ncc1CC2	0.15	-1.27
Cc1ccc(C2C3=C(CC(C)(C)CC3=O)Nc3nc(SCCN4CCOCC4)[nH]c(=O)c32)cc1 (configuration not stated)	-0.28	0.76
Cc1cc(C)c(NC(=O)C(C)CS(=O)(=O)c2ccc3c(c2)NC(=O)CS3)c(C)c1 (configuration not stated)	·	-1.17
Cc1ccc(NS(=O)(=O)c2cc(-c3cc(C)no3)ccc2C)nc1	·	-0.21
Cc1ccc(S(=O)(=O)OCP(=O)(c2ccccc2)c2ccccc2)cc1	-1.04	·
CC(C)S(=O)(=O)/C(C#N)=C/NN1CCOCC1	-2.62	·
O=C1NC(c2ccccc2O)Nc2sc3c(c21)CCN(Cc1ccccc1)C3 (configuration not stated)	1.03	-2.52
Cc1ccc2oc(=O)c3cnn(CC(=O)N(Cc4ccco4)C4CCCCC4)c3c2c1	-1.41	2.65
CCCCNC(=O)Cc1c(C)[nH]n(-c2nc(C)c(C)s2)c1=O	-0.93	-0.04
CCC(C)NC(=O)c1sc(C)nc1C (configuration not stated)	-2.25	2.92
CCCN(C(=O)NCc1noc2ccccc12)c1ccc(F)cc1	·	1.19
CCc1n[nH]c(=O)c2cc3cc(OC)ccc3n12	-1.19	3.14
Cc1ccc(Nc2nc3ccc(C)cc3n3nnnc23)c(Cl)c1	-0.55	-3.73
O=C(Nc1nccs1)c1ccc(CN2C(=O)CSc3ncccc32)cc1	·	0.1
Cn1c(=O)c2c(-c3ccccc3)n3c(c2n(C)c1=O)C(c1ccc2c(c1)OCO2)OCC3(C)C (configuration not stated)	-1.47	1.76
Cc1cc(C)n(-c2nc3c(c(=O)n2CC(=O)Nc2ccc4c(c2)OCO4)CCC3)n1	·	2.07
Cc1ccc(-c2onc(C)c2C)cc1S(=O)(=O)NCc1ccc(N(C)C)cc1	·	1.2
CCSCCOC(=O)C1=C(C)NC2=C(C(=O)CC(C)(C)C2)C1c1ccc(OC)c(O)c1 (configuration not stated)	-0.95	0.41
COc1cc(S(=O)(=O)N2CCN(c3cc(N4CCCCC4)nc(C)n3)CC2)c(C)cc1C	1.72	-0.49
COc1ccc(NS(=O)(=O)c2ccc3c(c2)NC(=O)CS3)cc1OC	·	3.35
COc1ccc(N2CCN(c3ncnc4c3cnn4C)CC2)cc1	·	3.29
O=C(O)CCC(=O)Nc1nccs1	1.64	0.27
O=C(Nc1nnc2n1CCCS2)c1c(F)cccc1F	·	0.85
O=C(Nc1ccc(F)cc1)C1CCCN(c2ncnc3c2nc2n3CCCCC2)C1 (configuration not stated)	·	-0.85
Cc1ccc(OCC(O)CN2C(=O)NC(C)(C)C2=O)cc1C (configuration not stated)	-1.49	1.38
CCNCCNC(=O)c1c(O)c2c([nH]c1=O)CCCC2	-1.57	2.95
CCc1nnc(SCC(=O)N(CC)c2ccccc2)c2cc3occc3n12	·	-3.54
CCOc1ccc2nc(NC(=O)Cn3cnc(S(=O)(=O)N4CCCC4)c3)sc2c1	·	0.09
Cc1ccc(-c2noc(CSc3nnc(-c4ccncc4)n3CC(C)C)n2)cc1	0.8	1.79
COc1cccc2c1OC1(CCCCC1)N1N=C(c3ccco3)CC21 (configuration not stated)	1.45	·
CC1CCC(NC(=O)C2CCN(S(=O)(=O)c3cccnc3)CC2)CC1 (configuration not stated)	·	2.76
Nc1nnc(Cn2cnc3ccccc32)o1	-0.34	1.4

# Continued, overlapping the part above by 2 compounds.
compound	CDC25B-CDK2 inh	HIV TAR-Tat
CC1CCC(NC(=O)C2CCN(S(=O)(=O)c3cccnc3)CC2)CC1 (configuration not stated)	·	2.76
Nc1nnc(Cn2cnc3ccccc32)o1	-0.34	1.4
O=C(COc1ccc(Cl)cc1)N(Cc1ccco1)Cc1ccco1	-1.08	-0.3
COc1ccc(Nc2ncnc3c2cnn3-c2ccc(F)cc2)cc1Cl	·	0.72
Cc1cc(C)n(CCc2nc3c4ccccc4n(CC(N)=O)c(=O)n3n2)n1	-2.62	·
CCCn1c(CCNC(=O)CCC(C)O)nc2ccccc21 (configuration not stated)	-0.28	-0.46
Cc1cccn2c(=O)cc(COc3ccc(NC(=O)C(C)Oc4ccccc4)cc3)nc12 (configuration not stated)	·	-1.03
CCN(CC)C(=O)CSc1nc2c(cnn2-c2ccc(Cl)cc2)c(=O)[nH]1	·	1.87
O=C(NC1(O)C(=O)c2ccccc2C1=O)c1ccc(-c2csnn2)cc1	0.76	·
O=C(CC1(O)C(=O)Nc2ccccc21)CC1(O)C(=O)Nc2ccccc21 (configuration not stated)	0.96	1.07
CCOC(=O)c1sc(N2C(=O)C(=O)/C(=C(/O)c3ccc(F)cc3)C2c2ccc(C)cc2)nc1C (configuration not stated)	-1.6	0.6
Cc1csc(NC(=O)CSc2nnc3ccc(-c4cccs4)nn23)n1	·	0.32
CCc1ccc(Nc2ncnc3c2cnn3C)cc1	·	2.44
CCC1Sc2ccc(S(=O)(=O)CCC(=O)NC3CCCc4ccccc43)cc2NC1=O (configuration not stated)	·	-1.09
O=C(CCCSc1nc2sc3c(c2c(=O)[nH]1)CCCC3)NCCO	-0.95	·
O=C(CN1c2ccccc2NC2=C(C(=O)CCC2)C1c1cccs1)Nc1ccc(F)cc1F (configuration not stated)	·	0.97
